FGF22 binding: FGF22 (human) thermal shift binding; 340,000 tested, 1.5% active; recombinant FGF22 thermal shift, SYPRO orange fluorescence; percent of sucrose octasulfate shift, DMSO zero; AID 651658; Q9HCT0; calls only at 9.99 µM;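 active means melting point raised past a set limit in the mean and every replicate; inconclusive means no clear call; three in four hits are not shown here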
HNF4A DNA FP: change in binding of human HNF4 alpha to DNA; HNF4a-FITC DNA binding, fluorescence polarization, 1 h; activity change, % at 10 µM; 360,000 tested, 0.3% active; AID 1224865; in the data active means activity change above about 30%, passing the limit was not always enough;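 further: controls were the assay level and a saturating level of protein; the project sought stronger binding though the title names inhibitors; some compounds called inactive have numbers as strong as hits; positive values seem to mean higher polarization but the record does not say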
Target sequence (P41235 whole entry, looked up): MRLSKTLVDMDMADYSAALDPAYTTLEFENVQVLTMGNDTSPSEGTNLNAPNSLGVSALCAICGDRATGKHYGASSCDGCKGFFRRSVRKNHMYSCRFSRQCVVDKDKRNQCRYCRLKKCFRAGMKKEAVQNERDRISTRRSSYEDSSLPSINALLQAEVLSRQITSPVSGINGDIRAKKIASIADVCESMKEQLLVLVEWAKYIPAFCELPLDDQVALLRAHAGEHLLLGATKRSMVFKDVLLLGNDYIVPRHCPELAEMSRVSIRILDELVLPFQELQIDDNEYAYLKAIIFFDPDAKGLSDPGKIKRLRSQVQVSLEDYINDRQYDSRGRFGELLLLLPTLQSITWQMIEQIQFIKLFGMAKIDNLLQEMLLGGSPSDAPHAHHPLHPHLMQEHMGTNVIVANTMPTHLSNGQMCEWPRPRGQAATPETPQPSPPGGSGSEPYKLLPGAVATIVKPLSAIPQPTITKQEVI
AF4-AF9 inh: inhibitors of human MLL-AF4/AF9 interaction; AlphaScreen, biotin-AF4 peptide binding to FLAG-AF9; inhibition, % at 10 µM; 350,000 tested, 0.47% active; P42568; AID 651704;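 active means every replicate reaching a set inhibition limit, whatever the replicate mean, cut at about 25% in these data; inconclusive means mean inhibition reaches that limit but some replicates miss it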;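 further: 0% = plate neutral control median and 100% = total signal loss; the record names both 10 and 1 µM as test concentration; the first replicate is given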
Target sequence (P42568 whole entry, looked up): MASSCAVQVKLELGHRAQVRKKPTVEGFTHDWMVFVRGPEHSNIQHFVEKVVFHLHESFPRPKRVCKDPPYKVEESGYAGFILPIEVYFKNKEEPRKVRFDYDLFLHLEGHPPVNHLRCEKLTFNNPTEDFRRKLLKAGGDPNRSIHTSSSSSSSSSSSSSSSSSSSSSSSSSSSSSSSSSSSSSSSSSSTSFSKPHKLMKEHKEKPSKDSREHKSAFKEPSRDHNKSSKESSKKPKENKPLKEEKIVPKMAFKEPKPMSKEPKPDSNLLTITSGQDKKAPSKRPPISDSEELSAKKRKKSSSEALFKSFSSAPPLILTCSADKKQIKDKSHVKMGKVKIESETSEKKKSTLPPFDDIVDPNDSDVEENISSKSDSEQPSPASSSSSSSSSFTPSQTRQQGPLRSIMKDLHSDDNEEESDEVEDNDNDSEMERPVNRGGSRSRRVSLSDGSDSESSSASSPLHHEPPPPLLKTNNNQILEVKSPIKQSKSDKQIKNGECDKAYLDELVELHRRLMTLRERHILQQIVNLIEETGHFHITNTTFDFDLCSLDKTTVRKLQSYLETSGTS
Ecoli growth: E. coli growth inhibition; Escherichia coli growth, OD600, 23 h; stronger effect = lower value; OD600 absorbance (no concentration beside the values); 330,000 tested, 0.21% active;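 active means OD600 absorbance below the run mean of sample wells minus 3.6 SD, in any replicate, cut at about 0.56 in these data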;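 further: stock transfer was 300 nL into about 60 µL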
Vif TR-FRET: inhibitors of Vif binding to APOBEC3G peptide, primary screen, biochemical, TR-FRET, GST-Vif 1-94, biotin-A3G peptide, dose response retest (AID 1117319). TR-FRET GST-Vif / biotin-A3G peptide binding; higher % means a stronger effect; test concentration not given here; strong numbers were not always called active. inhibition, %, or IC50 in µM where a hit was titrated. 260,000 tested, 0.57% active;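 active means above the screen mean plus three standard deviations and confirmed in dose response; inconclusive means results disagree or hit not tested in dose response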;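 further: Vif residues 1-94 fused to GST binding biotinylated APOBEC3G peptide 110-148; 0% = full assay without inhibitor and 100% = GST in place of GST-Vif; retest series ran down from 100 µM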
Ecoli rRNA inh: inhibitors of bacterial rRNA selective over humanized ribosomes | E. coli WT GFP vs humanized-ribosome RFP mutants, fluorescence, 24 h; stronger effect = lower value; DMSO median 0, no signal -100 | GFP signal change (wild-type ribosome), % (concentration not given with the values) | 350,000 tested, 1.6% active;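 active means significant combined selectivity score with lowered wild-type GFP, culture density cut under 30%, mutant RFP and density less affected; inactive means any of these conditions unmet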; further: one replicate is shown; some compounds called inactive have numbers as strong as hits
ALR inh: human ALR oxidase inhibition via reduced H2O2 | purified ALR, DTT oxidation, H2O2 HRP-luminol luminescence | inhibition, % (concentration not given with the values) | 290,000 tested, 3.8% active;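 active means mean and each replicate at 75% or more; inconclusive means only one of the two met; inactive means neither met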;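 further: stock transfer was 7.5 nL into about 7.5 µL; 0% = neutral wells and 100% = wells with inactivated enzyme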
Ecoli rRNA inh OD600: also measured in Ecoli rRNA inh; calls as there; OD600 change, %; measured here: OD600 growth;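 optical density of the mix in the first replicate; 0 = DMSO median and -100 = no signal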
Ecoli rRNA inh RFP: also measured in Ecoli rRNA inh; calls as there; RFP signal change, %; measured here: RFP humanized mutant strains;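 first replicate; 0 = DMSO median and -100 = no signal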
Active calls of the source: *; i = inactive; ? = inconclusive; · = no result given; & = joins results of further samples. A portion of the library; count on the stated rates, not on these rows.

SMILES	FGF22 binding	HNF4A DNA FP	AF4-AF9 inh	Ecoli growth	Vif TR-FRET	Ecoli rRNA inh	Ecoli rRNA inh OD600	Ecoli rRNA inh RFP	ALR inh
O=C(NCC[C@H]1CC[C@@H](NC(=O)C2CCC2)[C@@H](CO)O1)Nc1ccc(Cl)cc1	i	·	2.0	·	·	-30	-51	13	·
O=C1CSC(c2cccc(F)c2)N1c1ccccc1 (stereo not drawn)	i	-0.8	-0.6	0.66	2%	6	-1	-6.2	98*
C[C@H](CO)N1C[C@H](C)[C@H](CN(C)CC2CCOCC2)Oc2ncc(-c3cncnc3)cc2C1=O	i	·	-4.0	·	·	3	9	0.3	·
C[C@H]1CN([C@@H](C)CO)S(=O)(=O)c2ccc(Br)cc2O[C@H]1CN(C)C(=O)Cc1ccccc1	i	2.1	-0.2&0.7	·	4%	-7&-8	-7&-7	-0.1&-2.8	·
C[C@@H]1CN([C@@H](C)CO)S(=O)(=O)c2ccc(-c3cccc(F)c3)cc2O[C@@H]1CN(C)C(=O)C1CC1	i	·	-0.1	·	·	-4	-12	3.0	·
CC1(C(=O)NS(=O)(=O)c2ccccc2)CCN1C(=O)C1(c2ccc(Cl)cc2)CCC1 (stereo not drawn)	i	-0.5	-0.3	·	·	-12	5	1.5	·
CCc1ccc(NC(=O)Cn2ncc3c4ccccc4n(C)c3c2=O)cc1	i	0.5	3.0	0.7	-8%	8	6	1.3	-4
CCCOc1cccc(C2/C(=C(/O)c3ccccc3)C(=O)C(=O)N2CCN(C)C)c1 (stereo not drawn)	·	-3.0	·	0.7	4%&-4%	·	·	·	·
CN1CCN(Cc2nc(N)nc(Nc3ccc4c(c3)OCCO4)n2)CC1	·	0.5	·	0.72	4%	·	·	·	-7
Cc1onc(-c2ccccc2)c1C(=O)N=C(N)c1ccc(Cl)cc1	i	3.3	-2.6	0.69	4%	-3	1	1.0	-10
COc1ccc2c3c([nH]c2c1)[C@@H](CO)NCC31CN(C(=O)Nc2ccc(F)cc2F)C1	i	·	5.0	·	·	0	9	1.2	·
Nc1nnc(SCCN2C(=O)c3ccccc3C2=O)s1	·	9.7	·	0.66	-2%	·	·	·	-11
O=S1(=O)N[C@@H](Cc2ccccc2)COc2cccc(NCCCN3CCOCC3)c21	i	·	0.3	·	·	1	1	1.1	·
CC(Cc1cccs1)NC(=O)CCCn1nnnc1CN1CCOCC1 (stereo not drawn)	i	0.5	-0.7	0.75	-8%	13	9	3.8	-2
CCOc1ccc(/C=N/NC(=O)CSc2n[nH]c(=O)[nH]c2=O)cc1OC	i	1.3	0.3	·	8%	12	14	1.3	-7
c1ccc(CN2CC[C@@H](Nc3nccn4ccnc34)C2)cc1	i	-0.1	0.8	·	·	8	11	0.3	·
C[C@@H](O)C#Cc1ccc2c(c1)O[C@@H](CN(C)C(=O)c1ccccc1)[C@@H](C)CN([C@@H](C)CO)S2(=O)=O	i	·	-3.5	·	·	3	-6	-1.5	·
Cc1nn(C(C)C(=O)N2CCc3ccccc3C2)c(=O)c2cc3occc3n12 (stereo not drawn)	·	-1.3	·	0.74	?	·	·	·	-11
COc1ccc(-n2ncc3c(N4CCN(c5cccc(C)c5C)CC4)ncnc32)cc1	i	-0.7	1.9	0.77	·	·	·	·	-3
O=C1C(Cl)=C(N2CCN(Cc3ccccc3)CC2)C(=O)N1c1ccccc1	·	-0.1	·	0.68	9%	·	·	·	10
C[C@H](CO)N1C[C@H](C)[C@H](CN(C)Cc2ccc3c(c2)OCO3)Oc2ccc(NS(C)(=O)=O)cc2C1=O	i	·	-12	·	·	-1	3	2.0	·
O=C1C2C3CC(C(Br)C3Br)C2C(=O)N1CC1CCCO1 (stereo not drawn)	i	1.9	-3.8	0.7	-11%	3	-2	-4.0	4
COc1ccc(C(=O)Nc2ccc3c(c2)C(=O)N(C)C[C@@H](OC)[C@H](C)CN[C@@H](C)CO3)cc1	i	·	-2.5	·	·	1	0	-0.8	·
O=C(CSc1nnnn1-c1ccccc1)Nc1nc(-c2ccccc2)ns1	·	-2.1	·	0.83	-4%&-9%	·	·	·	9
COCC#Cc1ccc2c(c1)O[C@H](CN(C)C)[C@H](C)CN([C@H](C)CO)S2(=O)=O	i	·	-1.6	·	·	1	9	-5.4	·
Remaining list, next part
SMILES	FGF22 binding	HNF4A DNA FP	AF4-AF9 inh	Ecoli growth	Vif TR-FRET	Ecoli rRNA inh	Ecoli rRNA inh OD600	Ecoli rRNA inh RFP	ALR inh
CCc1ccc(NC(=O)CSc2nc3nc(C)cc(C)n3n2)cc1	i	0.4	-2.0	0.64	·	4	-10	5.3	-1
COCCNC(=O)C(c1ccc(Cl)cc1)N(C(=O)CCC(=O)Nc1ccccn1)C1CCCC1 (stereo not drawn)	·	2.6	·	0.68	-4%&13%	·	·	·	-6
O=C(O)c1cccc(-n2nc(-c3ccc(Cl)c([N+](=O)[O-])c3)c3ccccc3c2=O)c1	i	3.4	2.5	·	·	11	-1	-0.7	12
C/C(=N\NC(=O)c1cc(Br)ccc1O)c1ccccn1	i	-1.7	3.8	·	·	-38	-42	-7.1	85*
CC(=O)c1cccc(NS(=O)(=O)c2ccc(C(=O)Nc3ccccc3)cc2)c1	i	-1.1	-1.1	0.67	·	-12	-16	-2.6	-3
COc1ccc(NC(=O)CN(C)C(=O)c2ccc(C)s2)cc1	·	1.8	·	0.75	-8%	·	·	·	-4
CCCCN(Cc1ccco1)S(=O)(=O)c1ccc(-c2ccc(=O)[nH]n2)s1	i	-4.0	0.7	0.68	·	-16	-16	-14	-2
Cc1cccnc1NC(=O)C12CCC(C)(C(=O)O1)C2(C)C (stereo not drawn)	·	-0.7	·	0.69	1%	·	·	·	1
C=C(C)Cn1c(=O)c(NC(=O)c2ccccc2)c2n(c1=S)CCC2	·	-0.8	·	0.72	?	·	·	·	-5
O=C(c1ccc(Cl)cc1)c1ccccc1C(=O)N1CCOCC1	i	0.2	12	0.7	9%	2	6	2.8	-7
CC(C)N(CCNC(=O)c1ccc(OCC2CCCO2)cc1)C(C)C (stereo not drawn)	i	-5.1	-0.2	0.68	·	3	3	-1.3	-5
CC(NC(=O)c1ccco1)c1nc(-c2ccccc2Cl)no1 (stereo not drawn)	i	0.4	-4.2	0.68	·	-1	0	2.7	-11
COc1cc(/C=N/Nc2ccccn2)ccc1OCC(C)C	i	0.3	2.2	·	1%	5	4	0.7	·
CN(C)CC(=O)N1CCCCN2[C@H](CO)[C@H](c3ccc(-c4cccc(C(=O)N(C)C)c4)cc3)[C@@H]2C1	i	·	-3.2	·	·	3	7	0.0	·
CCN(CC(=O)Nc1sc2c(c1C#N)CCCC2)Cc1nc2ccccc2c(=O)[nH]1	i	-0.1	-0.5	0.72	?	0	-24	0.5	1
Cc1ccccc1-n1c(=O)cc(N2CC(C)OC(C)C2)[nH]c1=O (stereo not drawn)	·	-5.2	·	0.75	1%	·	·	·	16
Cc1ccc(N2CC(C(=O)Nc3cc(C)on3)CC2=O)c(C)c1 (stereo not drawn)	i	0.1	0.3	0.71	·	4	7	-2.8	-3
COc1ccc(CNc2ccc3c(c2)nc(C)n3C)cc1	·	-0.8	·	0.67	10%	·	·	·	89*
CCc1ccc(N(C(=O)c2csnn2)C(C(=O)NC2CCCCC2)c2ccncc2)cc1 (stereo not drawn)	i	2.2	0.5	0.7	·	4	2	-3.5	0
O=C(NNC(=O)c1nn(-c2ccc(F)cc2)ccc1=O)c1ccc(Cl)cc1	i	-0.6	0.1	0.69	·	13	4	-1.9	0
Cc1cc(NS(=O)(=O)c2ccc(NC(=O)/C=C/c3ccccc3)cc2)nc(C)n1	i	-4.0	0.7	0.65	-2%	4	-6	0.5	9
Oc1ccc(-c2cnc3c(Nc4cccc(OC(F)(F)C(F)F)c4)nccn23)cc1	i	3.1	-1.1	·	·	-4	-8	-3.6	·
O=C(Cn1ccc([N+](=O)[O-])n1)N1CCCCCC1	i	2.9	5.4	0.69	-7%	7	3	0.2	-4
C[C@@H]1CN([C@H](C)CO)S(=O)(=O)c2ccc(C#Cc3cccc(F)c3)cc2O[C@H]1CN(C)S(=O)(=O)c1ccccc1F	i	·	-0.4	·	·	-2	4	-4.2	·
CC1Cc2ccccc2N1C(=O)Cn1nnc(-c2ccccc2NC(=O)C2CCC2)n1 (stereo not drawn)	·	0.6	·	0.71	20%	·	·	·	2

Complete entries, looked up by structure.
C=C(C)Cn1c(=O)c(NC(=O)c2ccccc2)c2n(c1=S)CCC2 as listed: FGF22 binding: ·; HNF4A DNA FP: -0.8; AF4-AF9 inh: ·; Ecoli growth: 0.72; Vif TR-FRET: ?; Ecoli rRNA inh: ·; Ecoli rRNA inh OD600: ·; Ecoli rRNA inh RFP: ·; ALR inh: -5
CC1Cc2ccccc2N1C(=O)Cn1nnc(-c2ccccc2NC(=O)C2CCC2)n1 (stereo not drawn) as listed: FGF22 binding: ·; HNF4A DNA FP: 0.6; AF4-AF9 inh: ·; Ecoli growth: 0.71; Vif TR-FRET: 20%; Ecoli rRNA inh: ·; Ecoli rRNA inh OD600: ·; Ecoli rRNA inh RFP: ·; ALR inh: 2

Next part
SMILES	FGF22 binding	HNF4A DNA FP	AF4-AF9 inh	Ecoli growth	Vif TR-FRET	Ecoli rRNA inh	Ecoli rRNA inh OD600	Ecoli rRNA inh RFP	ALR inh
CCC(=O)N(C)C[C@@H]1Oc2cc(C#CCC3CCCC3)ccc2S(=O)(=O)N([C@@H](C)CO)C[C@H]1C	i	·	4.7	·	·	-22	-54	25	·
C[C@H](CO)N1C[C@H](C)[C@H](CN(C)Cc2ccc(C(=O)Nc3ccccc3N)cc2)Oc2ccc(NC(=O)Nc3cccc4ccccc34)cc2CC1=O	i	·	-0.5	·	·	-2	-7	-0.5	·
C=CCc1cccc(/C=N/NC(=O)C[n+]2ccccc2)c1O	i	-0.9	20	·	-6%	-3	2	-1.0	21
COC(=O)c1ccc(=O)n(CC(=O)c2ccc(Cl)cc2)c1	i	0.6	-1.2	0.68	-7%	7	13	-2.4	-1
O=C(O)CS(=O)CC(=O)NCc1cccc(C(F)(F)F)c1 (stereo not drawn)	i	-4.0	0.9	0.66	-8%	1	2	-0.3	0
CCOC(=O)Cn1c(-c2ccccc2)nc2ccccc2c1=O	·	0.2	·	0.68	?	·	·	·	1
C[C@@H]1CN([C@H](C)CO)C(=O)c2cc(NS(=O)(=O)c3cn(C)cn3)ccc2O[C@@H](C)CCCCO[C@@H]1CN(C)CC1CC1	i	·	-7.4	·	·	6	10	-0.1	·
COc1ccc(-c2cc(C(F)(F)F)n3nc(N)nc3n2)cc1	i	4.3	-19	0.7	-2%	11	2	-8.0	-5
Cc1c(C(=O)c2ccc(F)cc2F)c2ccccn2c1CCc1ccccn1	i	6.1	8.5	·	5%	0	-31	3.2	·
O=C(Nc1ccccc1-c1nc2ccccc2s1)C1=COCCO1	i	-5.3	-0.7	0.72	-15%	-56	-74	-32	-6
CCOC(=O)c1cnc(SC)nc1Nc1cccc2ccccc12	·	-2.2	·	0.72	-2%	·	·	·	-16
CC(Sc1nnc(Cc2cccs2)n1C)C(=O)Nc1ccc(C(N)=O)cc1 (stereo not drawn)	i	0.7	-1.2	0.69	3%	3	4	3.1	·
Cc1c(NC(=O)/C=C/c2cn(-c3ccccc3)nc2-c2ccccc2)c(=O)n(-c2ccccc2)n1C	·	3.5	·	·	-4%	·	·	·	-2
COc1ccc(CNC(=O)CCCN2C(=O)NC3(CCCC3)C2=O)cc1	i	1.0	-0.8	0.66	0%	11	10	0.0	-2
O=C(COC(=O)C1=NNC(=O)CC1)NCCc1ccccc1	i	-4.1	-16	0.67	-8%	10	5	-1.5	-1

High-throughput results (PubChem)
